PINK1 expr mod – PINK1 expression modulation. PINK1 immunofluorescence, high-content cytometry, 24 h. Potency, µM (highest dose often 76.6 µM), inactives show at the top dose activation (PINK1 increase), usual class: activators. actives 0.2% (n = 410,000). AID 624263; active = well fitted activation curve with a large enough effect; inconclusive = small, poorly fitted or top-dose-only effect; inactive = flat fitted curve, though single readings scatter; cell line not stated here;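 note: potency is the fitted concentration of half-maximal effect; % of control where 0% means no effect; nearly all actives have a fitted effect of over 65% in size; a mitochondrial uncoupler was the plate control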
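PINK1 protein level read as immunofluorescence by microplate cytometer in a fixed, stained stable cell line after 24 h exposure to five compound concentrations, with CCCP as control.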
gsp antag – gsp mutant antagonism | Potency, µM (series often up to 76.9 µM), inactives show at the highest dose activity change, negative = inhibition, hits mostly inhibitors | gsp-mutant cells, cAMP HTRF, 30 min; control for the full effect not named in the record | actives 0.4% (n = 340,000); active = falling curve of any shape with a large fitted effect; inconclusive = falling curve, mostly with a smaller effect; inactive = flat or rising curve; cell line not stated here;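 note: intracellular cAMP measured with PDE inhibitor Ro 20-1724 present during compound exposure; potency is the fitted concentration of half-maximal effect; % is set by controls: 0 for no effect and ±100 for the full control effect; nearly all actives have a fitted effect of over 65% in size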
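HTRF cAMP measurement after 30 min RT detection following 30 min, 37C compound treatment alongside […] (added as 300 uM solution) in G418-selected cells seeded at 2000/well and grown 16–24 h.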
gsp agonist – agonists of gsp mutant (McCune-Albright syndrome); gsp mutant cells, cAMP HTRF, 30 min; control for the full effect not named in the record; Potency, µM (titrated, usually from 76.9 µM), for inactives: top-dose activation (cAMP increase), hits mostly activators; actives 0.13% (n = 340,000); active = well fitted activation curve with a large enough effect; inconclusive = small, poorly fitted or top-dose-only effect, or another doubt; inactive = no such curve, though single readings can be large or run the other way; cell line not stated here;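 note: phosphodiesterase inhibitor Ro 20-1724 added with compounds to block cAMP breakdown; potency is the fitted concentration of half-maximal effect; nearly all actives have a fitted effect of over 60% in size; about a fifth of the inactives were tested at one dose only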
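Cells stably selected in G418 were plated at 2000/well, grown 16-24 hr, then given compounds in DMSO with the PDE inhibitor […] (300 uM solution added) for 30 min at 37C; cAMP was read by HTRF.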
D2 agonist – agonists of human D2 dopamine receptor (beta-arrestin); P14416; DiscoveRx PathHunter D2 beta-arrestin, luminescence, 90 min; 100% = 57 uM dopamine signal; activation, % (test concentration not listed); actives 0.084% (n = 360,000); AID 624465; in the data active = activation above about 40%; inconclusive = about 15% to 40%; inactive = below about 15%; note: compound concentration not given in the record; the text of the record calls up to 30% inactive
Target sequence (P14416 whole entry, looked up): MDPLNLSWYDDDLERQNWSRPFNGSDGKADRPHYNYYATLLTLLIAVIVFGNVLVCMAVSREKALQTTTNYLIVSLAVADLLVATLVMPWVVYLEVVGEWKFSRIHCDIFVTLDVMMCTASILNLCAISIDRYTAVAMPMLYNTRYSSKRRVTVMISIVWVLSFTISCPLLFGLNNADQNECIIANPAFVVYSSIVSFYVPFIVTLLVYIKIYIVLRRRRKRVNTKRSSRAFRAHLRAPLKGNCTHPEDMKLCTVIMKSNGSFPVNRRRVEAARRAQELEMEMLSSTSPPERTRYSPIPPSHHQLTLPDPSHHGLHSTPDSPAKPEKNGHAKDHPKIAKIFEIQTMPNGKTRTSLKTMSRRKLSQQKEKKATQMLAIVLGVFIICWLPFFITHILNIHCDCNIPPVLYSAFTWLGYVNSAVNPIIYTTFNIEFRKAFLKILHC
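Agonist mode: compounds alone added to overnight-plated D2 PathHunter cells for 90 min at 37 C, with 57 uM final dopamine (EC100) defining full response. Beta-arrestin recruitment detected by chemiluminescent reagent, read after 1 h at ambient temperature.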
Sfp inh – inhibitors of Bacillus subtilis Sfp phosphopantetheinyl transferase. Biochemical Sfp PPTase activity, qHTS. Potency, µM, for inactives: max response, negative = inhibition, usual class: inhibitors. actives 3.5% (n = 310,000); active = well fitted inhibition curve with a large enough effect; inconclusive = small, poorly fitted or top-dose-only effect, or another doubt; inactive = no such curve, though single readings can be large or run the other way;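 note: the enzyme is Sfp with the accession as filed and its product quenches rhodamine fluorescence; potency is the fitted concentration of half-maximal effect; 0% = enzyme reaction without inhibitor and -100% = no enzyme wells; top concentration of the series not given in the record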
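Reaction rates are the 30-min fluorescence difference (ex 525, em 598 nm) in wells containing 15 nM Sfp, 5 uM rhodamine-CoA and 12.5 uM BHQ-2-YbbR at pH 7.6 with 10 mM MgCl2.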
ClpP mod – qHTS Assay for Activators of ClpP; actives 1.9% (n = 340,000); Potency, µM (doses to about 57.5 µM), for the others: at the highest dose activity change, negative = active; ATP-dependent Clp protease proteolytic subunit (Bacillus subtilis (strain 168)), P80244; purified B. subtilis ClpP, FRET peptide cleavage, 20 min; active = well fitted falling curve with a large enough effect; inconclusive = small, poorly fitted or top-dose-only effect; inactive = no such curve, though single readings can be large or run the other way; note: potency is the fitted concentration of half-maximal effect; the source files actives as falling curves though it sought activators and does not explain the sign; nearly all actives have a fitted effect of over 65% in size; many hits overshoot -100%
Target sequence (P80244 whole entry, looked up): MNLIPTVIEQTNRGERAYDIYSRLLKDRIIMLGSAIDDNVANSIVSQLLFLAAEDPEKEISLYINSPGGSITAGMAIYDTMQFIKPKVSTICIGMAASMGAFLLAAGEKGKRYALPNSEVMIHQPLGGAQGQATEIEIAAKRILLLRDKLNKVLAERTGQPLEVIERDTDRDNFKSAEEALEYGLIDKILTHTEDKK
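Buffer: 100 mM Tris/HCl pH8, 100 mM KCl, 0.05% low protease BSA, 2.5% glycerol, 0.01% Tween-20. ClpP 10 microg/mL final; 20 min RT; delta FRET normalized to ADEP and DMSO controls.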
Menin-MLL FL inh – inhibitors of human menin-MLL interaction, wild-type MLL peptide | FP activity change, % at 61.4 µM | Fluorescence polarization, fluorescein-MLL peptide displacement from menin | 290,000 tested, under 10 active; inconclusive = falling polarisation curve, or a change in total fluorescence; inactive = total fluorescence flat and polarisation flat or rising; no compound was filed as active; the % refers to the polarisation; negative = inhibition;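 note: % of control where 0% means no effect; inhibitors lower the polarisation; unlabelled MLL peptide was the positive control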
Starred values were filed as active, the others as inactive; ? = inconclusive; · = not tested or not shown; & = joins results of further samples; [ ] = another dose, or the depositor's remark.

compound	PINK1 expr mod	gsp antag	gsp agonist	D2 agonist	Sfp inh	ClpP mod	Menin-MLL FL inh
CC(C)CNC(=O)CSc1nnc(-c2ccccn2)n1Cc1ccccc1	-1.1%	-11%	1%	-0.5	10%	0.7%	-0.9
Cc1ccc(OCC(=O)NNC(=O)Cc2ccc(S(=O)(=O)N3CCOCC3)s2)cc1	4.8%	-7%	?	-1.0	·	-2.2%	·
CCOC(=O)CC1C(=O)NCCN1C(=S)NC(=O)c1ccccc1OC (configuration not stated)	0.2%	2%	-52%[inhibitor]	-2.7	-20%	-1.6%	·
O=C(c1cc(-c2ccc(F)cc2)nc2ccccc12)N1CCC1	0.0%	-4%	10%	1.1	·	·	·
Nc1ccc(SCCN2C(=O)c3ccccc3C2=O)cc1	-1.1%	-6%	-7%	-4.1	5%	1.2%	7.5
CCC(=O)Oc1cccc(C(=O)Nc2ccc(-c3nnc(-c4ccco4)o3)cc2)c1	2.5%	28µM*	10%	7.0	-14%	?	6.5
COC(=O)[C@@H]1C[C@@H]2CC[C@@H](O)C[C@@H]2N1Cc1ccccc1OS(=O)(=O)c1ccc(C)cc1	1.0%	8%	·	1.0	3%&6%	-0.8%	?
CCOC(=O)[C@@H]1[C@H]2COc3ccccc3[C@@H]2N2C(=O)N(c3cccc(F)c3)C(=O)[C@]12C	0.4%	-2%	-2%	-8.6	·	-0.9%	·
CCCOc1cccc(C2/C(=C(/O)c3ccc(F)cc3)C(=O)C(=O)N2CCN(C)C)c1 (configuration not stated)	-0.8%	11%	-33%[inhibitor]	-2.6	10%	3.0%	1.6
CCS(=O)(=O)CCSc1nc2ccccc2s1	-2.0%	5%	0%	-0.7	13%	-0.5%	-1.6
FC(F)(F)c1ccc(Cl)c(-n2c(-c3ccco3)n[nH]c2=S)c1	0.6%	2%	?	-1.8	4%	0.1%	4.9
c1cc(-c2nnc3n2CCCCC3)ccn1	-3.0%[38.3 µM]	8%	-2%	1.4	27%	0.5%	1.2
O=C(NCc1ccccc1)c1onc(CSc2ccncc2)c1C(=O)NCc1ccccc1	6.4%	-12%	-4%	-3.2	·	1.3%	·
CC(C)(C)c1nnc(N/N=C/c2ccc(Br)cc2)n(N)c1=O	16%	?	-52%[inhibitor]	2.1	?	-0.7%	4.3
O=C(CC1C(=O)NCCN1Cc1ccc(-c2ccccc2)cc1)NCc1ccccc1 (configuration not stated)	1.0%	-13%	-13%[15.4 µM]	-0.2	?	·	?
COc1cccc(NC(=O)Nc2cccn(Cc3ccccc3)c2=O)c1	-3.8%	-12%	-30%	1.8	-2%	?	9.1
CSc1ccccc1Nc1ncnc(N)n1	-0.7%	-1%	-3%[15.4 µM]	1.2	12%	2.4%	-1.7
COc1ccccc1NC(=O)c1cnc(SCC(=O)NCC2CCCO2)n(C)c1=O (configuration not stated)	-1.0%	-13%	-35%[15.4 µM]	5.2	·	-0.7%	·
CC(C)c1ccc(NC(=O)COC(=O)c2ccc(CN3CCCC3=O)cc2)cc1	0.4%	9%	0%	-1.1	·	-0.1%	·
CN(C)C(=O)c1cc(C(=O)c2ccccc2Cl)c[nH]1	0.2%	7%	-14%[15.4 µM]	-0.9	3%	·	2.3

Going on with the list.
compound	PINK1 expr mod	gsp antag	gsp agonist	D2 agonist	Sfp inh	ClpP mod	Menin-MLL FL inh
Cc1ccc2cc(/C=N/NC(=O)c3ccccc3O)c(Cl)nc2c1	?	?	-1%	-3.7	3%	-0.9%	-1.7
CCN(CC)c1ccc(NC(=O)CSc2n[nH]c(-c3ccco3)n2)cc1	-0.5%	?	-37%[inhibitor]	3.1	·	1.7%	·
CCCC(=O)Nc1nc(-c2ccccc2)ns1	11%	-2%	1%	-3.3	-3%	-4.1%	-2.1
COc1cc(CN2CCNC(=O)C2CC(=O)NCc2csc(C(C)C)n2)cc(OC)c1 (configuration not stated)	0.2%	2%	-24%	-2.9	-17%	0.3%	7.6
COc1ccc(NC(=O)C2CCCN(S(=O)(=O)c3c(C)[nH]c(=O)[nH]c3=O)C2)cc1Cl (configuration not stated)	-3.4%&-0.2%	-2%	-19%	3.6	12%	-0.3%	-1.4
CCc1c(C)nc(N2CCN(c3ccc(F)cc3)CC2)[nH]c1=O	4.5%	-5%	2%	-3.2	10%	1.5%	4.8
O=C(COC(=O)/C=C/c1ccc(C(F)(F)F)cc1)NCc1ccco1	1.0%	3%	-25%	-1.6	8%	0.0%	·
Cc1nc(SCC(=O)N(CC(C)C)C2CCS(=O)(=O)C2)c(C#N)c(C)c1C (configuration not stated)	2.1%	5%	-6%	-2.2	·	-0.8%	·
COc1cc2c(cc1NC(=O)CN(C)Cc1ccc(OC)c(OC)c1)oc1ccccc12	5.1%	40µM*	5%	-3.0	-5%	?	4.9
CCOc1ccc(N(CC(=O)N/N=C/c2ccc(OC(C)C)cc2)S(C)(=O)=O)cc1	2.0%	-5%	-1%	-5.8	-3%	-1.0%	-0.1
Cc1ccc(NC(=O)CSc2nnc(CCNC(=O)OC(C)(C)C)o2)c(C)c1	-1.1%	7%	-24%	-0.4	16%	-1.4%	0.7
CCOC(=O)Nc1c(C(=O)OC)[nH]c2cccc(OC)c12	1.7%	-2%	33%	2.9	12%	-21%	3.3
CN(C(=O)c1ccco1)c1nc2c(s1)CCCC2	3.0%	6%	5%	0.9	-9%	-1.2%	2.4
Cc1ccc(N2C(=O)C3C(C(=O)c4ccccc4)=NN(c4ccccc4)C3C2=O)cc1 (configuration not stated)	-3.0%	8%	0%[15.4 µM]	-4.3	10%	-1.7%	?
O=C1CC(c2ccc(O)cc2)Oc2cc(O)cc(O)c21 (configuration not stated)	2.2%&0.1%	-21%	·	-7.7	-6%&3%&23%	-0.7%	19&10&9.9
COCCN1C[C@@H](CO)O[C@@H](n2cnc3c(NCCCO)ncnc32)C1	0.8%	·	·	-5.3	·	-3.7%	·
Cc1ccccc1NC(=O)c1ccc2c(c1)OCCO2	0.0%	5%	8%	-2.3	10%	-1.3%	1.0
Cc1[nH]nc2c1-c1nc3ccccc3nc1C(C)(C)C2	-4.4%	-11%	12%	1.4	-12%	14µM*	-2.0
COc1ccccc1-c1ccc(/C=C2/C=C(C)OC2=O)o1	3.3%	-2%	9%	-1.1	?	32µM*	?
NC(=O)COc1ccc(C(=O)NCC2(N3CCOCC3)CCCCC2)cc1	2.8%	4%	-11%	-1.3	·	-3.0%	·

The results go on:
compound	PINK1 expr mod	gsp antag	gsp agonist	D2 agonist	Sfp inh	ClpP mod	Menin-MLL FL inh
CCC(C)c1ccccc1NC(=O)COc1ccc(-c2nnco2)cc1 (configuration not stated)	-1.1%	-5%	-12%[15.4 µM]	0.0	·	1.4%	·
CCOC(=O)C[n+]1ccc2c([nH]c3ccccc32)c1C	0.9%	12%	6%[15.4 µM]	-2.6	1%	-1.5%	-3.1
Cc1ccc(NC(=O)COC(=O)CCc2c[nH]c3ccccc23)c(C)c1	2.2%	-11%	-23%	-1.1	·	0.2%	·
C[C@H]1CN([C@@H](C)CO)C(=O)c2cc(Br)cnc2O[C@@H]1CN(C)C(=O)CN(C)C	-0.2%	·	26%	-14	·	-1.7%	·
Cc1ccc(C)n1-n1cnc2sc3c(c2c1=O)CCC3	·	-6%	?	-4.9	-2%	0.5%	1.8
CC(=O)Nc1cccc(NC(=O)COC(=O)CO/N=C(\C)c2ccc3c(c2)OCO3)c1	-1.2%	0%	-23%[15.4 µM]	-2.4	6%	0.7%	0.7
COC(=O)c1ccc(/C=N/NC(=O)CC(=O)NCc2cccnc2)cc1	-2.3%	6%	-8%	-1.6	15%	·	-0.6
COc1ccc(N(CC(=O)Nc2ccc(C(N)=O)cc2)S(=O)(=O)c2ccc(C)c([N+](=O)[O-])c2)cc1	4.5%	-9%	-5%[15.4 µM]	7.6	12%	·	-3.8
Cc1c(C(=O)N2CCN(CCc3ccccc3)CC2)oc2ccccc12	9.2%[38.3 µM]	-8%	1%	0.2	16%	-0.8%	0.7
COC(=O)c1cc(C(=O)OC)n(Cc2ccc(F)cc2)n1	4.5%[38.3 µM]	10%	1%	0.0	4%	0.7%	-0.5
COCCn1c(=O)c(-c2cccc(C#N)c2)nc2cnc(OC)nc21	1.1%	·	·	·	10%	·	0.4
OC(CN1CCCCC1)Cn1c2ccc(Cl)cc2c2cc(Cl)ccc21 (configuration not stated)	-4.0%	15%	-17%[15.4 µM]	1.9	50µM*	0.6%	-19
COc1ccc(NC(C)=O)cc1NC(C)c1nc2sc(C)c(C)c2c(=O)[nH]1 (configuration not stated)	1.4%	·	18%[15.4 µM]	3.1	?	·	4.0
CCC(C(=O)N/N=C(\C)c1cccnc1)c1ccccc1 (configuration not stated)	-0.1%	4%	?	0.2	12%	-0.3%	·
Cc1nn(C)c(C(=O)NC(=S)Nc2ccc([N+](=O)[O-])cc2)c1Cl	?	-21%	30%	-13	32µM*	0.4%	-0.8
CCOC(=O)C1(C/C(C)=N/NC(N)=O)CC(C)(C)OC1=O (configuration not stated)	-0.1%	14%	20%[15.4 µM]	-2.4	13%	-0.3%	-1.4
CCCCNC(=O)c1sc2nc(C)cc(COC)c2c1-n1cccc1	2.3%	2%	?	-1.0	?	6.1%	-0.7
CC(=O)Nc1cccc(-c2csc(C(C)(O)c3ccccc3)n2)c1 (configuration not stated)	0.4%	·	·	4.4	·	1.2%	·
Clc1ccccc1Cc1noc(CN2CCN(c3cnccn3)CC2)n1	2.4%	5%	-15%[15.4 µM]	-1.8	8%	-1.4%	1.4
C/C(=N\NC(=O)c1cccs1)c1cccnc1	-1.1%	4%	1%[15.4 µM]	-3.2	11%	·	-11

Next results follow:
compound	PINK1 expr mod	gsp antag	gsp agonist	D2 agonist	Sfp inh	ClpP mod	Menin-MLL FL inh
Sc1ccccc1N=Cc1cccs1	0.5%	·	26%	-0.9	·	4.5%	·
O=c1cc(N2CCOCC2)cnn1-c1ccccc1	-1.2%	7%	2%[15.4 µM]	-5.3	15%	-2.1%	·
CC1Nc2ncnc(N3CCc4ccccc4C3)c2N(Cc2ccc(Br)cc2)C1=O (configuration not stated)	4.4%&1.7%	-21%	·	-4.8&-10	·	-0.3%&-1.8%	·
COC(=O)c1c(C)[nH]c(C(=O)OCC(=O)NC(C)(C)C)c1C	0.1%	-1%	14%	-0.8	8%	-0.1%	8.4

Screens: PubChem, National Center for Advancing Translational Sciences (NCATS)
